Assay outcomes as filed in PubChem.
Menin-MLL FL inh: displaces fluorescein MLL peptide from human menin; Fluorescence polarization, fluorescein-MLL peptide displacement from menin; FP activity change, % at 61.4 µM; 290,000 tested, under 10 active; AID 1766; inconclusive = falling polarisation curve, or a change in total fluorescence; inactive = total fluorescence flat and polarisation flat or rising; no compound was filed as active; the % refers to the polarisation; negative = inhibition;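 note: % of control where 0% means no effect; inhibitors lower the polarisation; unlabelled MLL peptide was the positive control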
TRPML1 agonist: human mucolipin-1 channel agonism | Q9GZU1 | TRPML1-expressing cells, Ca2+ dye fluorescence, FDSS; host cell line not named in the record; reference of the full effect not given here | activation, % (no concentration beside the values) | actives 0.12% (n = 410,000) | AID 624414; in the data active = activation above about 50%; inconclusive = about 30% to 50%; inactive = below about 30%; note: 0% is about no effect; the text of the record puts the active cut at 80%
Target sequence (Q9GZU1 whole entry, looked up): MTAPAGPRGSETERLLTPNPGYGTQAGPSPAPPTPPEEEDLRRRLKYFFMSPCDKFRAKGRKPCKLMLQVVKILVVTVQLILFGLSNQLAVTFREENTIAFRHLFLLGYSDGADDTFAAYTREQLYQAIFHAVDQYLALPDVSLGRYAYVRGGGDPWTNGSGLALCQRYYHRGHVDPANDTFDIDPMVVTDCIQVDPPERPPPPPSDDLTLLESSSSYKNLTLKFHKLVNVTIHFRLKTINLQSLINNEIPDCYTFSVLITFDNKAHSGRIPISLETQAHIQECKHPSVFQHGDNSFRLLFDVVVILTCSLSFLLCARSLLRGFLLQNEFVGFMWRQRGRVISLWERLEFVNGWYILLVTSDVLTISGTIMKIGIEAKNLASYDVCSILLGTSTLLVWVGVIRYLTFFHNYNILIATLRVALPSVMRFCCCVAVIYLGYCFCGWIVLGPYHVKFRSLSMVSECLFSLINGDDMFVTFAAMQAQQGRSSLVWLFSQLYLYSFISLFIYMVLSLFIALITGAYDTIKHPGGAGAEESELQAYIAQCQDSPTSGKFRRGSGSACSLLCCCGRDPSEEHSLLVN
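Calcium fluorescence on an FDSS kinetic reader gave the read-out. Tet-induced TRPML1-DL cells were plated overnight, dye-loaded (Ca8 with quencher, 45-90 min, room temperature, dark), then read 110 s after compound addition, and again 110 s after 4uM final 54-4 (EC80).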
gsp antag: antagonizes gsp, the McCune-Albright syndrome mutation. gsp-mutant cells, cAMP HTRF, 30 min; control for the full effect not named in the record. Potency, µM (series often up to 76.9 µM), for the others: top-dose activity change, negative = inhibition, usual class: inhibitors. actives 0.4% (n = 340,000); active = falling curve of any shape with a large fitted effect; inconclusive = falling curve, mostly with a smaller effect; inactive = flat or rising curve; cell line not stated here;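 note: intracellular cAMP measured with PDE inhibitor Ro 20-1724 present during compound exposure; potency is the fitted concentration of half-maximal effect; % is set by controls: 0 for no effect and ±100 for the full control effect; nearly all actives have a fitted effect of over 65% in size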
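HTRF cAMP measurement after 30 min RT detection following 30 min, 37C compound treatment alongside […] (added as 300 uM solution) in G418-selected cells seeded at 2000/well and grown 16–24 h.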
TRPML1 inh: blocks the human TRPML1 channel | actives 0.02% (n = 390,000) | activity change, negative = inhibition, % (test concentration not listed) | TRPML1-inducible cells, Ca2+ dye fluorescence, FDSS; active compounds read low; inhibition of EC80 agonist-evoked calcium signal | Q9GZU1; in the data active means activity change below about -50%; inconclusive means about -30% to -50%; inactive means above about -30%;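 note: stimulus is agonist 54-4 at its EC80 concentration; % is set by controls: 0 for no effect and ±100 for the full control effect; compound concentration not given in the record; the text of the record puts the active cut at -80%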
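Calcium fluorescence in TRPML1-DL cells induced overnight with Tet: a 110 s read after compound pin addition, then a 110 s antagonist read after challenge with 54-4 at 4 uM final (EC80).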
gsp ag: agonists of gsp mutant (McCune-Albright syndrome) | actives 0.13% (n = 340,000) | Potency, µM (series often up to 76.9 µM), inactives show at the highest dose activation (cAMP increase), usual class: activators | gsp mutant cells, cAMP HTRF, 30 min; control for the full effect not named in the record; active = well fitted activation curve with a large enough effect; inconclusive = small, poorly fitted or top-dose-only effect, or another doubt; inactive = no such curve, though single readings can be large or run the other way; cell line not stated here;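 note: phosphodiesterase inhibitor Ro 20-1724 added with compounds to block cAMP breakdown; potency is the fitted concentration of half-maximal effect; nearly all actives have a fitted effect of over 60% in size; about a fifth of the inactives were tested at one dose only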
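Cells in DMEM/10% FBS with G418 were pretreated with compounds in DMSO plus […] (300 uM stock) for 30 min at 37C. cAMP was measured by HTRF (cAMP-d2 plus anti-cAMP antibody-K) after 30 min at room temperature.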
ClpP mod: qHTS Assay for Activators of ClpP. ATP-dependent Clp protease proteolytic subunit (Bacillus subtilis (strain 168)), P80244. purified B. subtilis ClpP, FRET peptide cleavage, 20 min. Potency, µM (top dose mostly 57.5 µM), inactives show at the top dose activity change, negative = active. actives 1.9% (n = 340,000). AID 651965, 2013; active = well fitted falling curve with a large enough effect; inconclusive = small, poorly fitted or top-dose-only effect; inactive = no such curve, though single readings can be large or run the other way; note: potency is the fitted concentration of half-maximal effect; the source files actives as falling curves though it sought activators and does not explain the sign; nearly all actives have a fitted effect of over 65% in size; many hits overshoot -100%
Target sequence (P80244 whole entry, looked up): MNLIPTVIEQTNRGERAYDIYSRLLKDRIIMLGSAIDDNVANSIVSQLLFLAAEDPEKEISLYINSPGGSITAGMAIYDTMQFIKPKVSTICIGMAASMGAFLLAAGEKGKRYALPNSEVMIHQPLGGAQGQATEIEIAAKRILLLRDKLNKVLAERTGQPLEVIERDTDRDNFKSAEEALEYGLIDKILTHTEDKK
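ClpP 10 microg/mL final, pH 8 Tris/KCl buffer with BSA, glycerol, Tween-20; compound pinned in; FRET-FV substrate; RT 20 min; Ex320/Em430; ΔFRET vs ADEP 5.8 microM, DMSO, no enzyme.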
* = called active by the depositor; ? = inconclusive; / = no result given; & = joins results of further samples; [ ] = remark or other dose.

SMILES	Menin-MLL FL inh	TRPML1 agonist	gsp antag	TRPML1 inh	gsp ag	ClpP mod
COc1ccc(N2CCN(c3ncnc4scc(-c5ccc(C)cc5)c34)CC2)cc1	5.3	2.9	-21%	67	-7%	/
Cc1ccc(C(=O)N2CCC(C(N)=O)CC2)cc1NC(=O)c1nsc2ccccc12	/	0.4	/	5	/	0.9%
Cc1cccc(-n2c(=O)c3c4c(sc3n3c(C)nnc23)CCCC4)c1	/	-0.7	/	9	/	0.8%
CCOc1cccc(CNCCCSc2ncccn2)c1	-3.0	0.8	6%	-17	-2%	3.3%
Cc1cc(NC(=O)c2cc3cccc([N+](=O)[O-])c3[nH]2)ccc1F	0.6	6.4	-12%	15	?	0.5%
O=C(CCCOc1ccc(Cl)cc1Cl)NC(Cc1ccccc1)C(=O)O (stereo unspecified)	/	0.0	-2%	-11	?	-2.2%
CCN1C(=O)C2(c3ccccc31)c1c(oc3ccccc3c1=O)C(=O)N2CCOC (stereo unspecified)	/	-0.7	/	2	/	1.4%
CCc1ccccc1Nc1nc(N)nc(COC(=O)C2CCN(C(=O)c3ccc(F)cc3)CC2)n1	/	0.6	-11%	-3	8%[15.4 µM]	/
Cc1cccc(C)c1OCCNC(=O)OCc1ccccc1	-1.2	3.0	3%	?	-27%	-0.1%
Cc1ccc2nc3c(cc2c1)c(NC(=O)C1CCCO1)nn3CC(C)C (stereo unspecified)	-4.2	1.1	-3%	1	?	?
Cc1ccccc1N1C(=O)c2cccc3c(N(C)CCO)ccc(c23)C1=O	?	-0.2	?	5	-3%	-16%
CC(C)NC(=O)C1CCCN(S(=O)(=O)c2ccc(-n3cnnn3)cc2)C1 (stereo unspecified)	2.3	0.0	3%	-10	13%	-5.4%
C[C@H](CO)N1C[C@H](C)[C@@H](CN(C)C(=O)c2ccncc2)OCc2cnnn2CCCC1=O	/	0.1	/	-9	-2%	-2.0%
CC(C)CNC(=O)COC(=O)C1c2ccccc2Oc2ccccc21	-3.0	-0.2	-3%	-5	6%[15.4 µM]	-1.4%
Nc1ccccc1SC(C[N+](=O)[O-])c1ccccc1 (stereo unspecified)	-4.2	2.4	15%	49	1%	0.7%
Cc1c(CC(=O)NCCCC(=O)O)c(=O)oc2cc3occ(-c4ccccc4)c3cc12	6.7	0.7	1%	24	21%	/
Cc1noc(C)c1C(=O)N1CCC1(C)C(=O)NS(=O)(=O)c1cccc(Cl)c1 (stereo unspecified)	/	-0.3	/	31	/	0.9%
CC(NC(=O)c1cc2ccccc2o1)c1cccs1 (stereo unspecified)	2.1	-0.6	1%	2	-31%[inhibitor]	0.2%
COC(=O)[C@@]12CCCCN1[C@H](c1ccc(-c3ccc(F)cc3)c(OC)c1)[C@@H]1C(=O)N(C)C(=O)[C@@H]12	/	-0.4	-21%	76	/	-13%
CCCCN(C(=O)C1CCN(C(=O)c2ccccc2C)CC1)c1c(N)n(CC(C)C)c(=O)[nH]c1=O	/	2.3	6%	11	0%	-4.4%
O=C(COC(=O)c1ccc(Cl)s1)c1cc2ccccc2o1	7.0	0.9	-12%	5	-5%	-0.6%
COc1ccc(NC(=O)c2cc(-c3cc(C)c(C)cc3O)n[nH]2)c(OC)c1	-2.2	0.2	-22%	-13	-1%[15.4 µM]	0.3%
CC(=O)c1c(C)[nH]c(C(=O)CN2C(=O)NC(C)(c3ccc4c(c3)OCCO4)C2=O)c1C (stereo unspecified)	/	7.3	0%	30	-3%	2.1%
O=C(CNC(=O)c1ccccc1)NCC1COc2ccccc2O1 (stereo unspecified)	0.6	1.1	-9%	-6	15%	1.5%
CCOC(=O)[C@@H]1[C@H]2COc3ccc(Br)cc3[C@@H]2N2C(=O)N(c3ccccc3)C(=O)[C@]12C	-3.7	1.5	-11%	7	24%	-2.8%

Some of the entries so far, as labelled records:
> CC(=O)c1c(C)[nH]c(C(=O)CN2C(=O)NC(C)(c3ccc4c(c3)OCCO4)C2=O)c1C (stereo unspecified)
  Menin-MLL FL inh: /
  TRPML1 agonist: 7.3
  gsp antag: 0%
  TRPML1 inh: 30
  gsp ag: -3%
  ClpP mod: 2.1%
> O=C(CNC(=O)c1ccccc1)NCC1COc2ccccc2O1 (stereo unspecified)
  Menin-MLL FL inh: 0.6
  TRPML1 agonist: 1.1
  gsp antag: -9%
  TRPML1 inh: -6
  gsp ag: 15%
  ClpP mod: 1.5%

Next part:
SMILES	Menin-MLL FL inh	TRPML1 agonist	gsp antag	TRPML1 inh	gsp ag	ClpP mod
COC(=O)[C@H](C)N(Cc1ccc(Cl)c(Cl)c1)S(=O)(=O)CCNC1CCCC1	/	-0.9	-1%	12	/	0.7%
O=c1[nH]nc(SCc2ccccc2)c(=O)[nH]1	5.7	-0.1	4%	-3	2%	6.7%
O=C1CC(c2cccc(Br)c2)C2=C(CCCC2=O)N1 (stereo unspecified)	-0.1	-1.6	1%	-8	-1%	?
O=C(O)c1cnc(-c2ccccc2)nc1Sc1ccccc1	4.9	3.3	-32%	8	0%	-1.2%
CC(C)=CCC/C(C)=C/COc1c2occc2cc2ccc(=O)oc12	-12	1.3	-17%	19	-82%[inhibitor]	-1.7%
CN[C@H](CC(=O)O)C(=O)O	3.3&21	0.8	8%	14	/	0.0%
O=C1CCc2cc(S(=O)(=O)NCc3ccccc3Cl)ccc2N1	/	-0.2	14%	21	3%	0.5%
CCC(C)(C)n1nnnc1C(c1cc2cc3c(cc2[nH]c1=O)OCO3)N1CCCCC1 (stereo unspecified)	0.1	0.5	-3%	-2	1%	14µM*
O=C(COc1ccc2c(c1)CCC2)N1CCN(c2cccc(C(F)(F)F)c2)CC1	1.3	16	-6%	1	-4%	0.1%
CC(Sc1ncnc2sc(-c3ccccc3)cc12)C(N)=O (stereo unspecified)	/	-0.1	-6%	4	16%	-6.0%
CCc1ccc(CNC(=O)C2CC(=O)N(CCc3ccc(C)cc3)C2)cc1 (stereo unspecified)	0.8	-0.6	?	3	6%	1.2%
CCOc1ccc(CNC(=O)Cn2nc(C)c3nn(-c4ccc(Cl)cc4)c(C)c3c2=O)cc1	/	-0.2	/	22	/	-7.6%
COc1ccc(-c2c(C(C)=O)c(C)nc3sc4c(=O)n(-c5ccc(C)cc5)nnc4c23)cc1	-3.0	0.7	-12%	23	-2%	-1.0%
Cc1onc(-c2ccccc2)c1C(=O)Nc1cccnc1	-4.3	1.3	-1%	2	-7%	-2.3%
COc1ccc(NC2CCCN(C(=O)c3ccccc3N3CCOCC3)C2)cc1OC (stereo unspecified)	0.7	-0.2	-11%	-5	4%[15.4 µM]	-0.5%
CCOC(=O)c1ccc(NC(=O)C(C)N2C(=O)c3ccccc3C2=O)cc1 (stereo unspecified)	-1.9	0.6	-1%	1	-26%	0.4%
COc1ccccc1/C=C/C(=O)OCC(=O)NCc1ccco1	8.2	0.2	-2%	-8	-56%[inhibitor]	-27%
COc1ccc(C(=O)C(C)OC(=O)COc2ccccc2)cc1 (stereo unspecified)	/	1.3	-1%	5	-10%	0.3%
CC(C)Cn1c(=O)c(C(=O)Nc2cnccn2)c(O)c2ccccc21	2.4	-0.3	1%	-4	8%	-4.2%
CN(Cc1ccccc1)C(=O)CSc1nc(-c2ccc(F)cc2)cc(C(F)(F)F)n1	/	2.1	/	6	/	-19%
CCCCCc1cccnc1	5.3	0.7	4%	-22	-18%	3.4%
Cc1nc2cc(-c3cccs3)nn2c(NCC(C)(C)CN(C)C)c1C	1.5	3.4	5%	-3	-49%[inhibitor]	-14%
CCS(=O)(=O)N1CCN=C1SCc1cccc(F)c1	/	0.8	12%	-6	0%	0.5%
O=C(CCS(=O)(=O)c1ccc(Cl)cc1)N1CCCc2ccccc21	/	0.1	5%	-11	4%	-3.8%
CCCCOc1ccc(CC(=O)NCC(=O)O)cc1	/	-0.8	5%	1	-1%	2.1%

The listing continues.
SMILES	Menin-MLL FL inh	TRPML1 agonist	gsp antag	TRPML1 inh	gsp ag	ClpP mod
COc1ccc(Br)cc1CN1CCCCCCC1	-1.8	0.6	0%	-4	-28%	-2.4%
COC(=O)N/N=C/c1cccnc1	0.5	0.8	4%	-12	3%	2.1%
CCCN(CC1CCCO1)C(=O)CCc1nnc(-c2cc(C)on2)o1 (stereo unspecified)	-1.2	0.1	9%	2	-71%[inhibitor]	1.3%
COc1ccc(OC)c(NC(=O)c2ccccc2N(C)S(=O)(=O)c2ccc(C)cc2)c1	2.9	2.9	-20%	-16	-32%[inhibitor]	-27%
Cc1nc(NC(=O)CCCC(=O)Nc2nc(C)c(C)s2)sc1C	-1.2	0.9	1%	-7	?	-2.2%
Cc1c(C(=O)N/N=C/c2ccc(N3CCOCC3)cc2)nc2ccccn12	-0.6	0.4	-13%	-2	-18%	/
CCOc1ccc(NC(=O)CCS(=O)(=O)c2cc3c4c(c2)CCN4C(=O)CC3)cc1	/	-1.0	/	-17	/	-0.6%
O=C(NCCOc1ccccc1)C(=O)NCC1CCCO1 (stereo unspecified)	3.8	-0.3	11%	42	11%	-0.2%
CC1(Cc2cc(Cl)ccc2C(F)(F)F)C(=O)Nc2c(Cl)cccc21 (stereo unspecified)	/	-0.1	/	-17	/	0.8%
COc1ccccc1C=NNC(=O)c1ccncc1	/	-0.6	-2%	-6	-12%	/
CCOC(=O)N1CCC(N2CCCC(CO)(Cc3ccccc3C)C2)CC1 (stereo unspecified)	10	0.4	4%	-2	-42%[inhibitor]	-1.1%
O=C(CCN1C(=O)c2ccccc2C1=O)N1CCCCCC1	2.7	-0.9	9%	9	17%	-10%
CC(C)Sc1oc(-c2ccco2)nc1S(=O)(=O)c1ccccc1	0.8	2.2	-11%	-5	2%	-2.1%
COc1ccc(-c2ccc(CCC(=O)O)n2CC(=O)Nc2cccc(OC)c2)cc1	3.2	0.0	-14%	-13	22%	/
O=C(c1cc2ccccc2o1)N1CCN(c2ncccn2)CC1	/	-1.2	6%	20	-10%	/
Cn1c(=N)n(CC(=O)O)c2ccccc21	-0.2	1.5	-6%[15.4 µM]	-16	17%	1.1%
O=C1CC(c2ccc(F)cc2)Cc2nc(NCc3ccco3)ncc21 (stereo unspecified)	0.1	2.3	37%[activator]	-27	?	-6.7%

Sorted by the number under Menin-MLL FL inh (rising): seven of the compounds above.
mol,Menin-MLL FL inh,TRPML1 inh,gsp ag
Cc1nc(NC(=O)CCCC(=O)Nc2nc(C)c(C)s2)sc1C,-1.2,-7,?
Cc1c(C(=O)N/N=C/c2ccc(N3CCOCC3)cc2)nc2ccccn12,-0.6,-2,-18%
O=C1CC(c2ccc(F)cc2)Cc2nc(NCc3ccco3)ncc21 (stereo unspecified),0.1,-27,?
O=C(CCN1C(=O)c2ccccc2C1=O)N1CCCCCC1,2.7,9,17%
COc1ccc(OC)c(NC(=O)c2ccccc2N(C)S(=O)(=O)c2ccc(C)cc2)c1,2.9,-16,-32%[inhibitor]
COc1ccc(-c2ccc(CCC(=O)O)n2CC(=O)Nc2cccc(OC)c2)cc1,3.2,-13,22%
O=C(NCCOc1ccccc1)C(=O)NCC1CCCO1 (stereo unspecified),3.8,42,11%
